miR-21 reporter: miR-21 reporter, rising signal. 340,000 tested, under 10 active. HeLa miR-21 FLuc reporter, luciferase, 48 h. Potency, µM (top dose mostly 38.3 µM), without a hit: at the highest dose reporter change, positive = more light; active = well fitted rising curve with a large enough effect; inconclusive = small, poorly fitted or top-dose-only effect; inactive = no such curve, though single readings can be large or run the other way;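 further: % of control where 0% means no effect; miR-21 action dims this reporter so a rising signal means less miR-21 action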
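HeLa cells stably expressing CMV-driven firefly luciferase with a downstream miR-21 binding sequence, endogenously expressing miR-21, were treated with titrations (up to about 40uM final) for 48 hours at 37 degree Celsius. Luciferase luminescence was read after lysis.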
* marks the source's active call; other numbers are inactive results; ? = inconclusive. An excerpt, so the mix of outcomes need not match the whole.

Structure	miR-21 reporter
COc1cc2[nH]c(=O)n(CCCC(=O)NCc3ccccc3Cl)c(=O)c2cc1OC	-1%
C=CCc1ccccc1OCc1nc2ccc(C)cc2[nH]1	19%
O=C(Nc1ccccc1F)C(Cc1ccccc1)N1Cc2ccccc2C1=O (stereo not given)	0%
CCOc1ccc(NC(=O)CSc2nc(-c3cccc(Cl)c3)nc3c2Cc2c(CO)cnc(C)c2O3)cc1	3%
CCC(CC)C(=O)Nc1ccc(OCc2cc(=O)n3ccsc3n2)cc1	-18%
COc1ccccc1CCNC(=O)c1cccn1-c1nnc(N2CCCC2)s1	-1%
COc1ccc(NC(=O)C2=C(C)Nc3ncnn3C2c2cccn2C)cc1 (stereo not given)	0%
Cc1cc(C)cc(NC(=O)CSc2nc3c([nH]c4ccccc43)c(=O)n2-c2ccc(F)cc2)c1	-9%
COCC(=O)n1nc(-c2ccco2)nc1NCc1ccccc1Cl	-62%
Cc1nc(-n2nc(C)c(CCC(C)C)c2C)sc1C(=O)Nc1cccc(Cl)c1C	-22%
CCOC(=O)c1c(NC(=O)/C=C/c2ccc(OCC)c(OC)c2)sc2c1CCC2	-2%
CCOc1ccc(S(=O)(=O)Nc2ccc(-c3ccc(OC)nn3)cc2)cc1	0%
CCCc1nnc(NC(=O)c2cc(=O)c3cc(C)c(C)cc3o2)s1	3%
COc1ccc(NC(=O)C(=O)NCc2ccco2)cc1	-43%
CC1CCN(S(=O)(=O)c2nnc(NC(=O)c3cccc(Br)c3)s2)CC1	-6%
Cn1c(=O)c2nc(SCC(=O)Nc3ccc(OC(F)(F)F)cc3)n(C)c2n(C)c1=O	1%
COc1ccc(-c2csc(-c3c(N)c(C(=O)c4ccccc4)n4ccccc34)n2)cc1	-5%
CCc1ccc(NC(=O)N2CCN(Cc3cc(=O)n4nc(-c5ccccc5OC)sc4n3)CC2)cc1	3%
Cc1ccc(NC(=O)Cn2cc(S(=O)(=O)N3CCCC3)c(S(=O)(=O)N3CCCC3)c2)cc1F	-29%
Cc1ccccc1NC(=O)CN1C(=O)C2(SCC(=O)N2c2ccc(F)cc2)c2ccccc21 (stereo not given)	4%
COc1ccc(CCNC(=O)c2cnc3sc(N4CCCCCC4)nn3c2=O)cc1OC	-5%
Cc1cccc(Nc2nc(-c3ccccc3)c3cc(C)ccc3n2)c1	3%
CCOc1ccc(NC(=O)c2sc(-n3nc(C)c(Cc4ccc(Cl)cc4)c3C)nc2C)cc1	1%
NC(=O)Cn1c(=O)n(-c2ccc(F)c(Cl)c2)c(=O)c2sc3ccccc3c21	-27%
COc1ccc(NC(=O)CCS(=O)(=O)c2cc3c4c(c2)CCN4C(=O)CC3)cc1OC	-1%
CCCSc1ncc(Cl)c(C(=O)Nc2c(C(=O)Nc3ccc(OC)cc3)oc3ccccc23)n1	1%
CCCN1CCCc2cc(CN(CCCN3CCOCC3)C(=O)Nc3ccc(Cl)c(Cl)c3)ccc21	-5%
COc1cc(C)ccc1OCCn1c(-c2ccc(Cl)cc2)nc2ccccc2c1=O	-3%
CCn1cc(C(=O)N2CCN(c3cccc(Cl)c3)CC2)c(=O)c2cc(S(=O)(=O)N3CCOCC3)ccc21	3%
O=C(CSc1cn(CCNC(=O)c2ccccc2F)c2ccccc12)Nc1ccc(F)cc1	29%
CCc1ccc(CNC(=O)c2cnc3sc(N4CCCCCC4)nn3c2=O)cc1	3%
Cc1ccc(Cl)cc1Nc1nc2ccccc2n2c(C)nnc12	-12%
COc1ccc(CNC(=O)CCCn2c(SCC(N)=O)nc3cc4c(cc3c2=O)OCO4)cc1	0%
Cc1ccc(CNC(=O)CSc2c(C)cnc3c2c(=O)n(C)c(=O)n3C)cc1	-1%
Cc1ccc(N2C(=O)[C@@H]3CSC(c4ccc(F)cc4)N3C2=O)cc1 (stereo not given in full)	-11%
CCOc1ccccc1NC(=O)CSc1nnc(CC)c(CC)n1	-8%
CC(=O)N1CCOc2cc(S(=O)(=O)NCc3ccc(C)cc3)c(C)cc21	8%
Cc1c(C(=O)OCC2CCCCC2)[nH]c2c1C(=O)CC(c1ccc(F)cc1)C2 (stereo not given)	0%
CC1CCCCN1CCCNC(=O)c1ccc2c(c1)sc1nc(-c3ccc(F)cc3)cn12 (stereo not given)	-8%
CC(=O)N1CCC2(CC1)OC(=O)C(C)=C2C(=O)NCc1cccc(Cl)c1	-3%
NC(=O)C1(N2CCCCC2)CCN(C(=O)Nc2ccc(F)cc2F)CC1	3%
COc1cccc(N2CCN(C(=O)CCCCCn3c(=O)[nH]c4ccccc4c3=O)CC2)c1	29%
Cc1ccc(NC(=O)C(Cc2ccccc2)n2cccc2)cc1C (stereo not given)	7%
CCc1ccc(CNC(=O)CCSCc2ccccc2F)cc1	-3%
COc1ccc(Cl)cc1NC(=O)CSc1ccc(-c2sc(C)nc2C)nn1	2%
Cc1cccc(-n2c(=O)c3c(c4cc(C)ccc4n3C)n(CC(=O)N3CCCC3)c2=O)c1	1%
COc1ccc(-c2noc(CC(=O)N(C)c3ccccc3F)n2)cc1	0%
O=C(NC(=O)c1ccccc1)Nc1ccc(-n2nc(C(F)(F)F)cc2C(F)(F)F)cc1	-2%
CCn1c(=O)c2cc(C(=O)Nc3cc(F)ccc3F)sc2c2ccccc21	-7%
Cc1nn(-c2ccc(F)cc2)c(-n2cccc2)c1C(=O)NCCc1ccc(Cl)cc1	?
Cc1ccc(-c2cc(NC(=O)COc3c(C)cc(C)cc3C)on2)cc1	-44%
Clc1ccc(CCNc2nc3cc(Cl)c(Cl)cc3n3cnnc23)cc1	-6%
Cc1ccc(NC(=O)Cn2c(-c3nonc3N)nc3ccccc32)cc1C	-41%
COc1cccc(Cc2nc3ccccc3nc2SCC(=O)NCCc2ccccc2)c1	11%
Cc1ccccc1NC(=O)CCNC(=O)Cn1ccc2ccccc2c1=O	3%
CCN(Cc1ccccc1)C(=O)Cn1c(=O)n(-c2cccc(C)c2)c(=O)c2c1c1cc(OC)ccc1n2C	14%
O=C(CCCn1c(=O)c2cccn2c2cccnc21)NCc1ccc(F)cc1	-20%
COc1ccc(N2CCN(c3nc4ccc(C(=O)c5ccccc5)cc4n4cnnc34)CC2)cc1	-1%
CCOC(=O)c1ccc(NC(=O)N2CC3CCCN3c3ccccc32)cc1 (stereo not given)	-3%
CCOC(=O)C1CCC(CN(Cc2c(Cl)cccc2Cl)S(=O)(=O)c2ccc(F)cc2)CC1 (stereo not given)	6%

The listing continues:
Structure	miR-21 reporter
O=C(Cn1cnc2c(nc3n2CCCCC3)c1=O)Nc1ccc(F)cc1	-3%
COc1ccc(NC(=O)c2ccc(-c3nc(COc4ccccc4)c(C)o3)cc2)cc1	5%
CCc1nc(SC)ncc1C(=O)N1CCN(c2cc(Cl)ccc2C)CC1	5%
CCn1c2c(c(=O)n3ncc(C(=O)Nc4ccc(Cl)cc4C)c13)CN(Cc1ccc(OC)cc1)CC2	-5%
COc1ccc(C(=O)NCC(c2ccco2)S(=O)(=O)c2ccc(F)cc2)cc1 (stereo not given)	3%
O=C(NCc1ccc(F)cc1Cl)c1ccc(CSCc2ccccc2Cl)o1	-1%
Cc1cc(C)c(Cn2c3ccccc3c3cnn(CC(=O)NCc4cccs4)c(=O)c32)c(C)c1	1%
Cc1ccc(CSc2nc3ccc(NC(=O)COc4ccccc4F)cc3s2)cc1	-8%
Cc1ccc(-c2nn(CCC(=O)Nc3ccc(Cl)c(Cl)c3)c(=O)c3ccccc23)cc1	5%
Cn1c(=O)c2ccccc2n2c(CCC(=O)N3CCN(c4cccc(Cl)c4)CC3)nnc12	-3%
Cc1c(Cl)cccc1-n1c(CCC(=O)O)ccc1-c1cccs1	-4%
CC(CNC(=O)Cn1ncc2c3ccccc3n(Cc3cccc(Cl)c3)c2c1=O)c1ccccc1 (stereo not given)	-2%
O=C(Nc1sc2c(c1C(=O)Nc1cccc(Cl)c1)CCCC2)c1cccs1	2%
Cc1cc(C)n2c(Nc3ccc(Cl)cc3)c(-c3ccsc3)nc2n1	-16%
COc1cc(NC(=O)c2nc3ccccc3nc2C)cc(OC)c1OC	3%
Cc1ccc(-n2ncc3c(N4CCCCC4)ncnc32)cc1Cl	-3%
CN(C)S(=O)(=O)c1ccc(C(=O)Nc2ccc(-n3nncc3-c3ccccc3)cc2)cc1	19%
Cc1ccccc1CN1C(=O)C(O)(c2c[nH]c3ccccc23)c2cc(Cl)ccc21 (stereo not given)	?
CCOc1ccc(-n2ccnc2SCC(=O)Nc2nc3ccc(C)cc3s2)cc1	-19%
O=C(OCC1CCCO1)c1ccc2c(c1)N(Cc1ccccc1Cl)C(=O)c1ccccc1S2(=O)=O (stereo not given)	1%
Cc1cc(C)cc(N2C(=O)CSC23C(=O)N(CC(=O)NCCc2ccccc2)c2ccccc23)c1 (stereo not given)	2%
CCOC(=O)Cn1c(=O)n(CC2CCCO2)c2nc(-c3ccc(OC)cc3OC)nc(C(N)=O)c21 (stereo not given)	1%
COc1ccc2c(c1)c1c(c(=O)n(Cc3ccccc3)c(=O)n1Cc1cc(C)ccc1C)n2C	5%
CCCOc1ccc(C(=O)N(Cc2ccc(Cl)cc2)Cc2ccco2)cc1	1%
CCn1c(CN2CCN(c3cccc(Cl)c3)CC2)nc2c1c(=O)[nH]c(=O)n2C	3%
CS(=O)(=O)CC[C@@H](C(=O)NCCc1ccccc1)N1Cc2ccccc2C1=O	2%
CCOC(=O)CNC(=O)N1CCN(c2nnc(C)c3c(C)n(-c4ccc(Cl)cc4)nc23)CC1	0%
CSc1cccc(NC(=O)Cn2nc(C)c3sc4ccccc4c3c2=O)c1	16%
CCOCCCNC(=O)N1CCN(S(=O)(=O)c2ccc3c(ccn3C)c2)CC1	-4%
Cc1cc(C)c(NC(=O)CSc2nncn3c2cc2oc(C)cc23)c(C)c1	4%
Cc1ccc2nc(-c3ccc(Cl)c(NC(=O)c4cccc([N+](=O)[O-])c4C)c3)oc2c1	-45%
Cc1ccc(C)c(NC(=O)CSc2nnc(NC(=O)Nc3ccccc3)s2)c1	-9%
Cc1ccc(CSCC(=O)N2CCN(c3ccccc3F)CC2)cc1	-7%
CN(C)c1ccc(NC(=O)C2(c3cccs3)CCOCC2)cc1	-2%
O=C(O)c1c(CNCc2cccc(F)c2)c2ccccc2n1Cc1ccccc1	-4%
CC(=O)N1CCc2cc(CNC(=O)c3ccccc3Br)ccc21	-28%
CCc1cccc(C)c1NC(=O)CCCN1C(=O)C(c2ccccc2)Oc2cccnc21 (stereo not given)	-1%
CCOc1ccc(-c2cc(C(=O)NCCc3ccc(OC)c(OC)c3)[nH]n2)cc1	-10%
COc1ccc(CNC(=O)c2cnc3sc4cc(OC)ccc4n3c2=O)cc1	-2%
CC(C)c1cnc2c(c1SCC(=O)Nc1cccc(F)c1)c(=O)n(C)c(=O)n2C	3%
CSc1ncc(Cl)c(C(=O)N(Cc2ccc(C(C)C)cc2)C2CCS(=O)(=O)C2)n1 (stereo not given)	-2%
COc1ccc(NCc2cc3cc4c(cc3n(CC(=O)Nc3ccc(F)cc3)c2=O)OCCO4)cc1	-4%
Cc1noc(C)c1S(=O)(=O)N(CC(=O)NCc1ccccc1Cl)c1ccc(C(C)C)cc1	0%
Cc1cccc(NC(=O)c2cc(CN3CCOCC3)on2)c1C	-1%
CC(C)CC(=O)NCC(c1ccc2c(c1)OCO2)N1CCN(c2ccccc2)CC1 (stereo not given)	-3%
COc1cc(NC(=O)CN2C(=O)C(c3ccc(C)cc3)=NC23CCCCC3)cc(OC)c1	29%
CC(C)CC(=O)Nc1ccc(S(=O)(=O)Nc2cc3c(cc2N2CCOCC2)n(C)c(=O)c(=O)n3C)cc1	-2%

Taken from above (14 entries):
Structure	miR-21 reporter
Cc1ccc2nc(-c3ccc(Cl)c(NC(=O)c4cccc([N+](=O)[O-])c4C)c3)oc2c1	-45%
Cc1ccc(C)c(NC(=O)CSc2nnc(NC(=O)Nc3ccccc3)s2)c1	-9%
Cc1ccc(CSCC(=O)N2CCN(c3ccccc3F)CC2)cc1	-7%
CN(C)c1ccc(NC(=O)C2(c3cccs3)CCOCC2)cc1	-2%
O=C(O)c1c(CNCc2cccc(F)c2)c2ccccc2n1Cc1ccccc1	-4%
CC(=O)N1CCc2cc(CNC(=O)c3ccccc3Br)ccc21	-28%
CCc1cccc(C)c1NC(=O)CCCN1C(=O)C(c2ccccc2)Oc2cccnc21 (stereo not given)	-1%
CCOc1ccc(-c2cc(C(=O)NCCc3ccc(OC)c(OC)c3)[nH]n2)cc1	-10%
COc1ccc(CNC(=O)c2cnc3sc4cc(OC)ccc4n3c2=O)cc1	-2%
CC(C)c1cnc2c(c1SCC(=O)Nc1cccc(F)c1)c(=O)n(C)c(=O)n2C	3%
CSc1ncc(Cl)c(C(=O)N(Cc2ccc(C(C)C)cc2)C2CCS(=O)(=O)C2)n1 (stereo not given)	-2%
COc1ccc(NCc2cc3cc4c(cc3n(CC(=O)Nc3ccc(F)cc3)c2=O)OCCO4)cc1	-4%
Cc1noc(C)c1S(=O)(=O)N(CC(=O)NCc1ccccc1Cl)c1ccc(C(C)C)cc1	0%
Cc1cccc(NC(=O)c2cc(CN3CCOCC3)on2)c1C	-1%
